# gsp antagonist – antagonizes gsp, the McCune-Albright syndrome mutation | gsp-mutant cells, cAMP HTRF, 30 min; control for the full effect not named in the record | Potency, µM (titrated, usually from 76.9 µM), inactives show top-dose activity change, negative = inhibition, actives largely listed as inhibitors | actives 0.4% (n = 340,000) | AID 624288; active = falling curve of any shape with a large fitted effect; inconclusive = falling curve, mostly with a smaller effect; inactive = flat or rising curve; cell line not stated here;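 note: intracellular cAMP measured with PDE inhibitor Ro 20-1724 present during compound exposure; potency is the fitted concentration of half-maximal effect; % is set by controls: 0 for no effect and ±100 for the full control effect; nearly all actives have a fitted effect of over 65% in size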
#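 Measurement of cellular cAMP by homogeneous time-resolved fluorescence following a 30 min compound exposure at 37C. The PDE inhibitor […] was present throughout; the assay buffer was DPBS with 0.05% BSA and 0.005% Tween 20.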
# gsp agonist – activates gsp, the McCune-Albright syndrome mutation; gsp mutant cells, cAMP HTRF, 30 min; control for the full effect not named in the record; Potency, µM (series often up to 76.9 µM), for inactives: at the highest dose activation (cAMP increase), usual class: activators; actives 0.13% (n = 340,000); AID 624287; active = well fitted activation curve with a large enough effect; inconclusive = small, poorly fitted or top-dose-only effect, or another doubt; inactive = no such curve, though single readings can be large or run the other way; cell line not stated here;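 note: phosphodiesterase inhibitor Ro 20-1724 added with compounds to block cAMP breakdown; potency is the fitted concentration of half-maximal effect; nearly all actives have a fitted effect of over 60% in size; about a fifth of the inactives were tested at one dose only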
#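 Cells stably selected in G418 were plated at 2000/well, grown 16-24 hr, then given compounds in DMSO with the PDE inhibitor […] (300 uM solution added) for 30 min at 37C; cAMP was read by HTRF.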
# TRPML1 blocker – inhibitors of human TRPML1 channel; Q9GZU1; TRPML1-inducible cells, Ca2+ dye fluorescence, FDSS; active compounds read low; inhibition of EC80 agonist-evoked calcium signal; actives 0.02% (n = 390,000); activity change, negative = inhibition, % (no concentration beside the values); in the data active means activity change below about -50%; inconclusive means about -30% to -50%; inactive means above about -30%;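 note: stimulus is agonist 54-4 at its EC80 concentration; % is set by controls: 0 for no effect and ±100 for the full control effect; compound concentration not given in the record; the text of the record puts the active cut at -80%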
# Target sequence (Q9GZU1 whole entry, looked up): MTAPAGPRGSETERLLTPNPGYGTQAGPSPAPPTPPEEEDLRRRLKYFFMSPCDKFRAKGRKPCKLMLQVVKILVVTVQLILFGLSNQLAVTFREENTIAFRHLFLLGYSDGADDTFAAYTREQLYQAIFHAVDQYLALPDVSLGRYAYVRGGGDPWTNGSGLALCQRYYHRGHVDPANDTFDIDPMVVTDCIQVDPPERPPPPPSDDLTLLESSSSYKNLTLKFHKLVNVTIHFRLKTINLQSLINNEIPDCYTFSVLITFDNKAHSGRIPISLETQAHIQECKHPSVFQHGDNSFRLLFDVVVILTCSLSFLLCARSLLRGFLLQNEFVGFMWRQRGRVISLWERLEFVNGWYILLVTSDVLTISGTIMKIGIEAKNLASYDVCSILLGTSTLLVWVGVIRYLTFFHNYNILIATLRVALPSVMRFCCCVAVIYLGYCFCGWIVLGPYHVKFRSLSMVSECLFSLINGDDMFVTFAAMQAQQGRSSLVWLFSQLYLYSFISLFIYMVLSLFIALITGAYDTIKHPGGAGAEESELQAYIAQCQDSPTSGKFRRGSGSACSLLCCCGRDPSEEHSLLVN
#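 TRPML1-DL cells, Tet-induced overnight (~16 h, 37 °C) at 1,500 cells/well, were loaded with Ca8 no-wash dye plus quencher for 45-90 min at room temperature. Compounds were pinned during FDSS kinetic reading; agonist 54-4 at EC80 (4 uM final) then added.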
# ClpP mod – qHTS Assay for Activators of ClpP | purified B. subtilis ClpP, FRET peptide cleavage, 20 min | ATP-dependent Clp protease proteolytic subunit (Bacillus subtilis (strain 168)), P80244 | AID 651965, 2013 | Potency, µM (highest dose often 57.5 µM), without a hit: at the top dose activity change, negative = active | actives 1.9% (n = 340,000); active = well fitted falling curve with a large enough effect; inconclusive = small, poorly fitted or top-dose-only effect; inactive = no such curve, though single readings can be large or run the other way; note: potency is the fitted concentration of half-maximal effect; the source files actives as falling curves though it sought activators and does not explain the sign; nearly all actives have a fitted effect of over 65% in size; many hits overshoot -100%
# Target sequence (P80244 whole entry, looked up): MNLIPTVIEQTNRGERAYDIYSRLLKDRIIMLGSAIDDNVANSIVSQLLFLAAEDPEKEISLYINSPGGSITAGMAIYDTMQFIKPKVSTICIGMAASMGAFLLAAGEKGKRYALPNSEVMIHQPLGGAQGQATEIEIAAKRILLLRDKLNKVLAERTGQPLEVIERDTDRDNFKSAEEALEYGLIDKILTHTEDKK
#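 ClpP 10 microg/mL final, pH 8 Tris/KCl buffer with BSA, glycerol, Tween-20; compound pinned in; FRET-FV substrate; RT 20 min; Ex320/Em430; ΔFRET vs ADEP 5.8 microM, DMSO, no enzyme.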
# Menin-MLL FL inh – inhibitors of human menin-MLL interaction, wild-type MLL peptide. Fluorescence polarization, fluorescein-MLL peptide displacement from menin. FP activity change, % at 61.4 µM. 290,000 tested, under 10 active; inconclusive = falling polarisation curve, or a change in total fluorescence; inactive = total fluorescence flat and polarisation flat or rising; no compound was filed as active; the % refers to the polarisation; negative = inhibition;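 note: % of control where 0% means no effect; inhibitors lower the polarisation; unlabelled MLL peptide was the positive control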
# TRPML1 agonist – human mucolipin-1 channel agonism. Q9GZU1. TRPML1-expressing cells, Ca2+ dye fluorescence, FDSS; host cell line not named in the record; reference of the full effect not given here. activation, % (concentration not given with the values). actives 0.12% (n = 410,000); in the data active = activation above about 50%; inconclusive = about 30% to 50%; inactive = below about 30%; note: 0% is about no effect; the text of the record puts the active cut at 80%
#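 Tetracycline-induced TRPML1-DL cells are seeded and incubated overnight before loading with a no-wash Ca2+ dye and quencher. Agonist activity is taken from the 110 s fluorescence read following compound pin-transfer on an FDSS, before EC80 54-4 challenge.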
# Active calls of the source: *; ? = inconclusive; . = not tested or not shown; & = joins results of further samples; [ ] = remark or other dose.
SMILES,gsp antagonist,gsp agonist,TRPML1 blocker,ClpP mod,Menin-MLL FL inh,TRPML1 agonist
O=S(=O)(c1ccc(-c2csc(=Nc3ccccc3)n2CCCN2CCOCC2)cc1)N1CCOCC1,-16%,19%,13,-4.1%,5.6,-0.4
Cc1nc2nc(NC(=O)c3ccco3)nn2c(C)c1Cl,9%,-8%,25,2.8%,.,0.1
C/C(=N\NC(=O)c1c(Cl)cnn1C)c1cccc(NC(=O)COc2ccccc2)c1,-35%,-20%,-3,-7.6%,1.4,3.2
CC(C)Cc1nnc(NC(=O)CCS(=O)(=O)c2ccc(Cl)cc2)s1,9%,-25%,11,0.4%,0.6,-0.3
CCN(CC)CC(=O)Nc1c2c(nc3ccccc13)N(C)CC2,-5%,6%[15.4 µM],5,-2.3%,-0.7,-1.1
CCN(C(=O)CN1C(=O)NC(c2ccccc2)(c2ccc(C)c(C)c2)C1=O)C1CCCCC1 (stereo unspecified),-11%,-35%[inhibitor],6,0.1%,.,1.6
CCCCN(C(=O)c1ccc2ccccc2c1)c1c(N)n(CCCC)c(=O)[nH]c1=O,4%,-2%,-9,-2.9%,.,-1.0
Cc1cccc(OCC(=O)N/N=C\c2cn(C)c3ccccc23)c1,-10%,-1%[15.4 µM],8,.,5.8,1.5
CO/N=C\CC(=O)Nc1ccc(F)cc1,10%,-10%,-18,0.7%,-2.3,-0.3
COc1ccc(-c2csc(NC(=O)CC(NC(C)=O)c3ccccc3)n2)cc1OC (stereo unspecified),-9%,-9%,-10,-2.0%,.,-0.7
Cc1ccccc1C1=NC(C(F)(F)F)(C(F)(F)F)c2c(n(-c3ccc(F)cc3)c(=O)[nH]c2=O)N1,-29%,-34%[inhibitor],1,-24%,1.2,-0.3
O=C(NCCc1c[nH]c2ccccc12)/C(=C\c1cccs1)NC(=O)c1ccccc1,-14%,-32%[inhibitor],19,0.4%,1.3,2.9
CCc1ccc(Cn2ncc3c(C(=O)O)cc(C)nc32)cc1,-11%,6%[15.4 µM],22,.,.,8.5
CCOC(=O)C1C(=O)NC(c2ccccc2)=NC1c1ccc(Br)cc1 (stereo unspecified),-8%,-14%[15.4 µM],-20,.,4.6,-0.6
COCCNC(=O)Cn1cc2c(n1)CCC(C)C2 (stereo unspecified),10%,?,-2,1.2%,6.2,0.2
Cc1cccnc1CCNC(=O)c1ccc(OC2CCN(Cc3ccccn3)CC2)cc1,5%,-29%,-3,-1.1%,.,-0.1
CC1=C(C(=O)Nc2ccc(Cl)cc2)C(C(C)C)n2nc(SCc3ccc(Cl)cc3)nc2N1 (stereo unspecified),.,.,13,-4.8%,.,0.0
Cc1cc(F)ccc1NC(=O)CCc1c(C)nn(-c2ccc(N3CCCCC3)nn2)c1C,-4%,?,27,-0.1%,2.4,-1.2
O=C(c1c(F)cccc1F)N1CCCC1,5%,-40%[inhibitor],-2,-2.1%,-4.8,2.5
CCC(C)Nc1nc2c(c(=O)n(C)c(=O)n2C)n1Cc1cccc(C)c1 (stereo unspecified),-11%,1%,-1,-5.2%,-0.8,1.6
CCN(CC)S(=O)(=O)c1cc(C(=O)c2nccn2C)ccc1Cl,4%,9%[15.4 µM],21,-1.7%,0.0,-0.2
COc1cccc(CNCc2cccn2-c2nnc(N3CCN(c4ccccc4)CC3)s2)c1,.,.,17,-6.0%,.,2.2
Nc1ccc2c(c1)Nc1ccccc1CC2,3%,1%,-4,?,0.4,3.6
Cc1cccc(OCC(=O)Nc2ccc(N3CCN(C(=O)c4ccccc4)CC3)cc2)c1,?,-9%,18,3.2%,4.8,3.2
CCOC(=O)C1(CCOC)CCN(C(=O)Cc2ccsc2)CC1,-2%,2%,5,0.8%,2.2,0.0

# The results go on.
SMILES,gsp antagonist,gsp agonist,TRPML1 blocker,ClpP mod,Menin-MLL FL inh,TRPML1 agonist
Cc1ccc2c(c1)N(C(=O)CCC(=O)NCc1ccccn1)CC(C)O2 (stereo unspecified),5%,-10%,23,-2.5%,2.8,-0.1
COCc1cc(C)nc(SCC[N+](C)(C)CC(=O)Nc2cccc(C(F)(F)F)c2)c1C#N,-4%,8%[15.4 µM],-16,0.5%,-0.6,-1.2
COC(=O)c1ccc(S(=O)(=O)NCc2ccc(S(N)(=O)=O)cc2)o1,11%,0%[15.4 µM],-2,.,-1.6,0.0
O=C(c1cc2ccccc2o1)N1CCN(CCOc2ccccc2)CC1,1%,15%,5,0.4%,.,0.1
Cc1ccc(-c2noc(Cn3nc(C(=O)O)c4ccccc4c3=O)n2)cc1,5%,-33%[inhibitor],6,.,3.4,0.8
N#Cc1c(-c2ccc(Cl)cc2)ccnc1N1CCOCC1,-1%,?,22,.,0.9,0.7
O=C(COc1ccc(NC(=O)c2cccs2)cc1)c1ccc(F)cc1,3%,-19%,-9,-2.4%,.,1.7
COc1ccc(NC(=O)C2CCCO2)c(OC)c1 (stereo unspecified),1%,-5%,-7,.,1.6,-0.2
Fc1ccccc1Cc1noc(CN(Cc2ccccn2)CC2CCCO2)n1 (stereo unspecified),17%,-2%[15.4 µM],3,.,-0.7,-1.3
CC(=O)Nc1ccc(C(=O)OCC(=O)Nc2ccc(N3CCOCC3)cc2)cc1,-7%,?,-27,-2.0%,3.1,-0.5
CC(Oc1cc2oc(=O)c3c(c2cc1Cl)CCC3)C(=O)N1C[C@H]2C[C@@H](C1)c1cccc(=O)n1C2 (stereo partly specified),-12%,.,.,5.0%,-0.2,.
COC(=O)c1ccc(Cn2nnc3ccccc32)cc1,5%,2%[15.4 µM],28,.,4.3,-0.9
COc1cc(/C=C/C(=O)OCC(=O)Nc2cc(S(=O)(=O)N3CCCCC3)ccc2C)ccc1O,-28%,-8%[15.4 µM],13,0.0%,6.5,-0.4
CN1C(=O)C(CC(N)=O)N(NC(=O)c2ccc(Cl)cc2)C1=S (stereo unspecified),6%,11%,17,-1.4%,-0.5,0.1
CCc1cccc(C)c1NC(=O)CO/N=C(\N)CC(=O)NC1CCCCC1,-2%,4%,2,-2.3%,8.8,0.8
COc1cc(NC(=O)c2ccc(Cl)cc2Cl)ccc1-c1cc2ccccc2oc1=O,17%,?,-4,-6.5%,4.2,0.6
COc1ccc(CCNC(=O)CN(c2cc([N+](=O)[O-])ccc2OC)S(C)(=O)=O)cc1,-8%,17%[15.4 µM],15,.,-2.8,0.1
Cc1nc(CN2CCN(C(=O)c3ccc(C(C)(C)C)cc3)CC2)cs1,5%,5%,13,-3.0%,-0.1,-0.4
Clc1ccc(-c2nc3ccccn3c2CN2CCSCC2)cc1,-17%,-14%,-11,-8.7%,-1.2,0.6
Cc1ccccc1OCC(=O)NCC(c1ccc(Cl)cc1)N1CCCCC1 (stereo unspecified),.,.,-14,-0.4%,.,-0.1
C=CCNc1nc(-c2ccc(OC)cc2OC)cs1,-3%,?,7,-4.9%,8.6,-0.2
CCOC(=O)c1cc2c(=O)n3ccccc3nc2n(CCOC)c1=NC(=O)C(C)(C)C,-16%,2%,-5,18µM*,-0.8,-0.5
COc1cc(CNc2ccccc2SC)cc(OC)c1OC,?,-41%[inhibitor],12,-18%,-0.4,4.6
CCN1CCN(C(c2cccs2)C(C)NC(=O)c2c(F)cccc2F)CC1 (stereo unspecified),4%,?,-4,-1.1%,-0.1,0.6
CCOc1ccc(Cn2c(=O)oc3ccccc32)cc1,-3%,-32%[inhibitor],33&-11,0.7%&-1.2%,-6.6,3.0&2.3

# More structures.
SMILES,gsp antagonist,gsp agonist,TRPML1 blocker,ClpP mod,Menin-MLL FL inh,TRPML1 agonist
C/C(=C\c1ccccc1)CN1CCN(c2ccccc2)CC1,8%,-16%,-2,-0.4%,8.0,1.3
CCN(c1ccccc1)S(=O)(=O)c1ccc(C(=O)N(C)Cc2cccs2)cc1,-2%,-103%[inhibitor],8,-1.0%,.,1.1
c1ccn2cc(-c3ccc4c(c3)OCO4)cc2c1,-3%,-3%[15.4 µM],5,.,8.1,-0.7
O=C(CCN1C(=O)C2C3C=CC(C3)C2C1=O)NCCc1ccccc1 (stereo unspecified),10%,-54%[inhibitor],-7,-3.6%,0.8,-0.8
COc1ccc(S(=O)(=O)Nc2ncccc2C)c2ccccc12,-18%,-7%,-7,.,3.2,0.2
Cc1cccc(NC(=O)CCN2CCC(C(N)=O)CC2)c1,4%,-7%,6,1.1%,-3.7,0.5
Cc1cc(OCC(=O)N2CCN(c3cccc(Cl)c3)CC2)c2c(C)c(C)c(=O)oc2c1,?,31%,25,-3.7%,-3.8,2.3
COc1ccccc1-c1ccc(Nc2ccc(C(=O)N3CCOCC3)cc2)nn1,-1%,?,-5,-3.9%,-1.5,-0.9
C/C(=N\NC(=O)c1cc(C)oc1C)c1ccc2c(c1)OCO2,2%,-7%[15.4 µM],4,.,0.4,-0.4
CCOC(=O)NC(NCCc1ccccc1)(C(F)(F)F)C(F)(F)F,-12%,-19%,-4,1.1%,6.8,-0.2
O=C(Nc1nccs1)c1cc(S(=O)(=O)N2CCCCC2)ccc1Cl,-6%,-19%,5,1.6%,-2.7,0.4
CC[C@H]1OC(=O)[C@H](C)[C@@H](O[C@H]2C[C@@](C)(OC)[C@@H](O)[C@H](C)O2)[C@H](C)[C@@H](O[C@@H]2O[C@H](C)C[C@H](N(C)C)[C@H]2O)[C@](C)(O)C[C@@H](C)C(=O)[C@H](C)[C@@H](O)[C@]1(C)O,10%,.,14,-2.2%,4.9,0.3
O=C(Nc1ccc(Br)cc1)c1ccccc1CC[N+](=O)[O-],5%[15.4 µM],-5%,-17,1.8%,-2.0,0.2
O=C(Nc1nc2ccc(Cl)cc2s1)c1ccc(Br)o1,3%,-8%,4,8.8%,-1.0,-0.8
CC(NC(=O)Nc1ccc(Cl)cc1)C(c1cccs1)N1CCOCC1 (stereo unspecified),6%,0%,3,-0.6%,-2.0,0.3
O=C(COc1coc(CN2CCN(c3ccccc3F)CC2)cc1=O)NC1CCCC1,16%,3%[15.4 µM],10,0.0%,.,0.0
COc1ccccc1NC(=O)COC(=O)c1ccc(S(=O)(=O)N2CCCCCC2)cc1,9%,-2%[15.4 µM],-4,-2.1%,.,0.5
CC(C)CCN1CC(=O)N2[C@@H](Cc3c([nH]c4ccccc34)C2(C)C)C1=O,-8%,15%,2,11%,7.3,2.9

# Whole records, quoted from the list:
# Listed for `CC(NC(=O)Nc1ccc(Cl)cc1)C(c1cccs1)N1CCOCC1` (stereo unspecified) = gsp antagonist: 6%; gsp agonist: 0%; TRPML1 blocker: 3; ClpP mod: -0.6%; Menin-MLL FL inh: -2.0; TRPML1 agonist: 0.3
# Listed for `C/C(=N\NC(=O)c1c(Cl)cnn1C)c1cccc(NC(=O)COc2ccccc2)c1` = gsp antagonist: -35%; gsp agonist: -20%; TRPML1 blocker: -3; ClpP mod: -7.6%; Menin-MLL FL inh: 1.4; TRPML1 agonist: 3.2

# High-throughput results (PubChem BioAssay)
